High-throughput results as filed in PubChem BioAssay.
BmaI1 enzyme: BmaI1 acyl-homoserine lactone synthase inhibition – biochemical, fluorescence intensity, with counterscreen (AID 720554) | BmaI1 enzyme assay, fluorescence intensity; active compounds read high; test concentration not given here; a few actives read low; strong numbers were not always called active | inhibition, % | hit rate 0.4% among 12,000;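 active = both replicates within 2 robust z-scores of the inhibited control and a quiet counterscreen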;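 also: 0% = uninhibited enzyme and 100% = inhibited control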
BmaI1 enzyme counterscreen: second read-out of BmaI1 enzyme, no call of its own (marks repeat the call); inhibition, %; measured here: counterscreen; design of the counterscreen not given here;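 first of two replicates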
Numbers without * were called inactive.

The line under a structure holds: BmaI1 enzyme | BmaI1 enzyme counterscreen
O=C(CN1CCN(CN2C(=O)NC3(CCCC3)C2=O)CC1)Nc1ccc(Cl)c(C(F)(F)F)c1
    10.5 | 17.0
COc1ccc(-n2c(O)c(C=NCC(c3ccco3)N3CCCC3)c3ccccc3c2=O)cc1OC (configuration not stated)
    4.0 | -5.5
Cc1ccc(SCCC(=O)NN)cc1
    -87.0 | -48.0
CCC(C)n1nccc1N (configuration not stated)
    34.0 | 2.5
O=C(CSc1nnc(-c2ccc(F)cc2)o1)N(Cc1nc2ccccc2c(=O)[nH]1)CC1CCCO1 (configuration not stated)
    8.0 | 9.5
Cc1cc(C)c2nc(SCC#N)cc(C)c2c1
    19.0 | 19.0
COc1ccccc1NC(=O)CN(Cc1ccco1)C(=O)c1ccc(Cl)nc1
    20.5 | 11.0
N#Cc1c(N)n(CCNS(=O)(=O)c2ccccc2)c2nc3ccccc3nc12
    9.5 | -5.5
O=C(Cn1ncc(Cl)c(Cl)c1=O)N1CCCC1c1ccc2c(c1)OCCCO2 (configuration not stated)
    20.5 | 4.0
O=C(OCc1nc2scc(-c3ccccc3)c2c(=O)[nH]1)c1cccc(-n2cnnn2)c1
    8.5 | 8.5
Cc1nnc(SCc2cc(=O)oc3cc(O)ccc23)n1Cc1ccccc1
    24.5 | 13.5
O=C(CSc1nc2ccccc2c(=O)n1CCCO)c1ccc2c(c1)OCO2
    16.5 | 16.0
Cc1ccccc1CCN
    -4.0 | -8.5
CCCCN=C1SCC(c2c[nH]c3ccccc23)=NN1C
    24.0 | 24.5
Cc1ccccc1N=C1SCCN1C(=O)c1ccc2c(c1)OCCO2
    13.5 | 13.5
CN1CC(=O)N2[C@H](c3ccc4c(c3)OCO4)c3[nH]c4ccccc4c3C[C@@H]2C1=O
    17.5 | -1.0
COCCn1c(SCc2cc(=O)n3ccsc3n2)nnc1-c1ccncc1
    8.5 | 12.0
c1coc(CSCCNc2nc(-c3cccs3)nc3ccccc23)c1
    14.0 | 17.0
NS(=O)(=O)c1ccc(CCNC(=O)C2CCCCN2S(=O)(=O)c2ccccc2)cc1 (configuration not stated)
    14.0 | 11.5
O=C(CSc1nc2ccccc2s1)OCC(=O)c1ccc[nH]1
    18.5 | 5.5
COC(=O)c1ccc2c(=O)[nH]c(COC(=O)c3ccccc3OCc3c(C)noc3C)nc2c1
    12.0 | 4.5
CCOc1ccccc1C(=O)NC(C(=O)OC)C(C)C (configuration not stated)
    14.5 | 6.0
NC(=O)c1ccc(NC(=O)Cc2coc3cc4c(cc23)CCC4)cc1
    13.0 | 12.0
CC1CN(C(=O)COC(=O)c2cccc3ccccc23)CC(C)O1 (configuration not stated)
    10.0 | 11.5
O=C1c2ccccc2C(=O)N1CCCCn1nnc(-c2ccc(F)cc2)n1
    10.5 | 0.5
CCc1ccccc1Nc1nc(N)nc(CNCc2ccc(F)cc2)n1
    20.5 | 11.0
CC(Sc1nc2cc(Cl)ccc2c(=O)n1C(C)C)C(=O)Nc1ccc(N2CCOCC2)cc1 (configuration not stated)
    12.5 | 8.0
CC(=O)N1CCN(C(=O)CSc2nc3cc(Cl)ccc3s2)CC1
    10.0 | 8.5
C=CCn1c(SCC(=O)Nc2sc3c(c2C(N)=O)CCC3)nc2sc(C)c(C)c2c1=O
    -1.0 | -7.5
c1ccc2c(c1)CCCC2C1=NCCN1 (configuration not stated)
    5.5 | 11.5

Ordered by molar mass (falling): some entries from above
The line under a structure holds: BmaI1 enzyme | BmaI1 enzyme counterscreen
O=C(CN1CCN(CN2C(=O)NC3(CCCC3)C2=O)CC1)Nc1ccc(Cl)c(C(F)(F)F)c1
    10.5 | 17.0
COc1ccccc1NC(=O)CN(Cc1ccco1)C(=O)c1ccc(Cl)nc1
    20.5 | 11.0
CC(=O)N1CCN(C(=O)CSc2nc3cc(Cl)ccc3s2)CC1
    10.0 | 8.5
CC1CN(C(=O)COC(=O)c2cccc3ccccc23)CC(C)O1 (configuration not stated)
    10.0 | 11.5
CCOc1ccccc1C(=O)NC(C(=O)OC)C(C)C (configuration not stated)
    14.5 | 6.0
Cc1ccccc1CCN
    -4.0 | -8.5

The results go on.
The line under a structure holds: BmaI1 enzyme | BmaI1 enzyme counterscreen
Cc1ccccc1SCC(=O)OC(C)C(N)=O (configuration not stated)
    10.5 | 4.0
CCN(CC)Cc1ccc(C(=O)NN)o1
    -99.0 | -76.5
O=C(O)c1n[nH]c(=S)n1C1CC1
    69.5 | 29.0
S=C(/N=c1/sccn1Cc1ccccc1)NC1CC1
    25.5 | 8.0
O=S1(=O)CCN2N=C(c3ccccc3)C(c3ccccc3)=NC2=N1
    -8.5 | -11.5
Cc1cc(C(=O)Cn2cc(S(=O)(=O)N(C)C)ccc2=O)c(C)n1-c1ccc2c(c1)OCO2
    11.5 | -3.5
CCn1c(SCc2nnc(-c3ccccc3)o2)nc2sc(C)c(C)c2c1=O
    17.0 | 8.5
CCOC(=O)Nc1ccc2c(COC(=O)C3COc4ccccc4O3)cc(=O)oc2c1 (configuration not stated)
    13.5 | 8.0
CCOC(=O)c1ccccc1NC(=O)Cc1ccc(OC)c(S(=O)(=O)N2CCOCC2)c1
    12.0 | 12.0
CN(CC(=O)Nc1ccccc1Cl)C(=O)c1cc(=O)[nH]c2ccccc12
    12.5 | 7.0
Cc1cc(C(=O)OCCCc2nc(-c3ccccc3)no2)c2ccccc2n1
    26.0 | 14.0
CCOC(=O)c1c(C)oc2c1c1c(c3ccccc32)OCN(CCC(=O)O)C1
    100.0 | 75.0
Cn1ccc(=O)[nH]c1=O
    18.5 | 8.5
O=C(NCCc1ccccc1)c1cc(=O)[nH]c2ccccc12
    11.5 | 14.0
CC1(C)CC2=NN(c3ccccc3)P(=S)(NCc3ccco3)C2=C(N2CCCCC2)C1 (configuration not stated)
    12.5 | 1.5
COc1ccc(CC(=O)Nc2ccc(-n3cnnn3)cc2)cc1OC
    -20.5 | 4.0
CCCSc1nnc2n(-c3cc(C)cc(C)c3)c(=O)c3ccccc3n12
    22.0 | 5.0
CCC(CC)NC(=O)c1ccc2c(c1)OCCO2
    5.5 | 0.5
NCc1ccncc1
    2.0 | 1.5
COc1cccc(-n2c(=O)c3ccccc3n3c(SCCN(C)C)nnc23)c1
    25.5 | 12.5
CN1/C(=C\C(=O)CN2CCN(c3ccc(F)cc3)CC2)C(C)(C)c2ccccc21
    7.0 | -1.0
Cc1cc(Br)c(O)c(Br)c1
    14.0 | 5.5
CC(=O)N1CCN(CC(=O)Nc2ccc(C#N)c(Cl)c2)CC1
    3.5 | 0.5
CCNC(=S)Nc1ccc2cn[nH]c2c1
    -17.0 | 8.5
OCc1cc(Cl)c2c(c1)OCO2
    10.5 | 13.0
CCc1ccc(C2=Nn3c(nnc3-c3cccc(S(=O)(=O)N(CC)CC)c3)SC2)cc1
    21.0 | 3.0
c1cc(CN2CCNCC2)cs1
    2.5 | 2.5
CC(C)n1ncc2c(C(=O)NCC3COc4ccccc4O3)cc(C3CC3)nc21 (configuration not stated)
    21.0 | 4.5
O=C(O)c1cccc(S(=O)(=O)NCc2ccc3c(c2)OCO3)c1
    3.0 | 1.5
O=C(Cn1nc(C(=O)O)c2ccccc2c1=O)NC1CCCc2ccccc21 (configuration not stated)
    18.0 | 10.0
O=C(NCc1ccccc1)C1Cc2ccccc2CN1C(=O)c1ccco1 (configuration not stated)
    1.0 | 0.5
Cc1ccc(S(=O)(=O)N(C)c2ccc(OCC(=O)OCc3nnc(-c4ccccc4)o3)cc2)cc1
    8.0 | 4.0
CC(O)CNC1CCC2CCCCC2C1 (configuration not stated)
    9.5 | 14.5
CC(NCc1cccc(S(=O)(=O)N(C)C)c1)c1ccc(F)cc1 (configuration not stated)
    4.0 | 0.5
Cc1cccc(C)c1NC(=O)CCCSc1nnnn1C
    7.5 | 0.5
S=c1oc(COc2ccccc2Cl)nn1CN1CCOCC1
    29.5 | 11.5
CN(C)c1ccc(Nc2nc3ccccc3nc2NS(=O)(=O)c2cccs2)cc1
    79.5 | 37.0
CC(NC(=O)c1cc(=O)[nH]c2ccc(S(=O)(=O)N3CCOCC3)cc12)C12CC3CC(CC(C3)C1)C2 (configuration not stated)
    17.0 | 6.5
Cc1ccc2nc(COC(=O)Cn3[nH]c(=O)c4ccccc4c3=O)cc(=O)n2c1
    6.5 | 6.0
CC(C)=N/N=C(\N)SCc1ccccc1
    -37.5 | -17.0
Cc1ccnc2nc(C(=O)Nc3ccccc3C(C)(C)C)nn12
    18.5 | 0.0
COc1ccc(CCC(=O)Nc2nc3ccccc3[nH]2)cc1OC
    -2.5 | -7.0
Cc1cccn2c(N)c(-c3ccccc3)nc12
    76.0 | 33.5
Cc1ccc(C)n1-c1sccc1C(=O)Oc1ccc2c(c1)OCO2
    36.5 | 11.5
Cc1ccccc1Nc1nc(N)nc(COC(=O)C23CC4CC(CC(O)(C4)C2)C3)n1
    11.5 | 2.0
CN(C)/C=N/c1ncnc2c1cnn2-c1ccccc1
    8.5 | 6.5
N#Cc1c(N)cc(N)nc1SCc1ccc(Cl)c(Cl)c1
    19.5 | 5.0
COc1ccccc1C(=O)N(C)CCc1ccccn1
    3.5 | -1.5
O=C(/C=C/c1ccc(S(=O)(=O)NCc2ccco2)cc1)NCC(F)(F)F
    9.5 | 4.0
O=C(CSc1nc2ccccc2s1)c1ccc[nH]1
    35.0 | 9.5
CCN(CC(=O)Nc1ccc2c(c1)OCCO2)C(=O)C1CC1
    15.0 | 1.5
CC(=O)N1CCN(CC(=O)N2CCc3ccccc3C2)CC1
    14.0 | 17.0
CCCN1CCCC[C@H]1C(=O)Nc1c(C)cccc1C
    5.0 | 10.5
CC(C)(C)c1ccc(OCCC(=O)O)cc1
    1.0 | 1.0
c1ccc(SCCNC2=NCCCS2)cc1
    15.0 | 10.0
CC(C(=O)Nc1ccc(Br)cc1)N1CCN(S(=O)(=O)c2ccccc2)CC1 (configuration not stated)
    2.5 | 2.5
N#CCCn1cc(/C=N/n2c(=O)[nH]c3ccccc3c2=O)c(-c2ccc(F)cc2)n1
    12.0 | 6.5
Cc1cc(C(=O)CSC2=C(C#N)C(C)(C)C(C#N)C(=O)N2)c(C)n1-c1ccccc1 (configuration not stated)
    -16.0 | -14.5
COc1ccccc1NC(=O)NCC(c1ccco1)N1CCCCC1 (configuration not stated)
    -6.5 | -2.0
Cc1cc(-n2c(C)cc(C(=O)CSc3n[nH]c(=O)n3Cc3ccccc3)c2C)no1
    19.5 | 5.0

Other entries follow.
SMILES,BmaI1 enzyme,BmaI1 enzyme counterscreen
O=C(c1ccc2nc[nH]c2c1)N1CCN(S(=O)(=O)c2ccccc2C(F)(F)F)CC1,15.5,5.5
O=C(Nc1ccnn1C1CCCC1)c1cccnc1Oc1ccccc1,10.5,5.0
NC(=O)C1CCCCN1CC(=O)N1N=C(c2ccc(Cl)cc2)CC1c1ccco1 (configuration not stated),12.5,8.0
CC(C)(C)OC(=O)CSc1nnc(-c2nn(Cc3ccccc3)c(=O)c3ccccc23)o1,10.5,-0.5
OC[C@H]1O[C@@H](Oc2cc(O)cc(/C=C/c3ccc(O)cc3)c2)[C@H](O)[C@@H](O)[C@@H]1O,74.0,73.0
O=C(NCCN1C(=O)S/C(=C\c2ccccc2)C1=O)C1CCCC1,-22.0,-2.0
CC(C#N)Oc1ccc(-c2ccc(C#N)cc2)cc1 (configuration not stated),3.0,0.0
OC(CNc1ccncc1)COc1ccc(OCC(O)CNc2ccncc2)cc1 (configuration not stated),16.0,-0.5
O=C1CN(C(=O)Cn2cnc3ccc(Cl)cc3c2=O)c2ccccc2N1,24.5,2.0
CC(NC(=O)c1ccco1)C(=O)N1CCc2ccccc2C1 (configuration not stated),13.5,8.5
Cc1ccc(SCCC(=O)N/N=C/c2c(CO)cnc(C)c2O)cc1,-7.0,-31.0
COCCNC(=O)c1ccc(S(=O)(=O)N2CCCc3ccccc32)cc1,14.0,3.0
Cc1cccc(C(=O)OCC(=O)Nc2ccc3c(c2)OCCO3)c1C,-1.0,-1.5
CCOC(=O)c1sc(N)c(C#N)c1CSc1ccc2c(c1)OCCO2,8.0,-1.5
CSCC(=O)Nc1ccc(-c2ccccc2)cc1,5.5,10.0
COc1cccc(N=c2scc(-c3cccs3)n2CCCN2CCCC2=O)c1,19.5,10.0
COCC(C)N=C1SCCN1Cc1ccccc1 (configuration not stated),-2.5,-5.5
N#Cc1ccc(OCC(=O)Nc2cc(C(F)(F)F)ccc2-n2cncn2)cc1,18.5,11.0
Cc1ccccc1Nc1nc(N)nc(CNCc2ccccc2)n1,0.0,-3.0
COCCCn1[nH]nnc1=S,38.5,4.5
Cn1nnnc1SCC(=O)NC(=O)c1ccccc1Br,4.5,4.0
COc1ccc(-c2nnc(SCc3nc(N)nc(Nc4ccccc4C)n3)o2)cc1OC,14.5,6.5
CC1CCCCN1C(=O)CSc1nc2ccccc2[nH]1 (configuration not stated),9.5,2.0
CCOC(=O)c1c(C)oc2c1c(C=NCCCN1CCOCC1)c(O)c1ccccc12,9.5,9.0
Cc1cc(CNC(=O)COC(=O)C2CC3CCCC(C2)C3=O)cc(C)c1O (configuration not stated),38.0,11.5
CCOC(=O)c1ccccc1NC(=O)c1ccc(N2CCCC2=O)cc1,16.5,5.5
Cc1ccc(C(=O)OCC(=O)N2CCCC2)c(O)c1,7.5,5.0
COc1ccccc1NC(=O)c1c(N)n[nH]c1C,-2.5,0.0
CN(C(=O)CSc1nnc(C(F)(F)F)n1N)C1CCS(=O)(=O)C1 (configuration not stated),14.0,7.5
Cc1ccc(C)c(-n2nnnc2SCC(=O)OCC(=O)Nc2ccccc2C)c1,5.0,0.5
COc1ccc(S(=O)(=O)N2CCN(C(C)C(=O)NCc3ccccc3)CC2)cc1 (configuration not stated),5.5,2.5
O=C(COC(=O)CC1CCS(=O)(=O)C1)Nc1ccc(F)cc1 (configuration not stated),-4.5,-3.0
CS(=O)(=O)c1cccc(C(=O)NCc2ccccc2)c1,16.5,4.5
COc1ccc(Cl)cc1CC(=O)O,15.0,7.0
COC(=O)c1ccc(OC(=O)/C=C/c2cccn2C)cc1,4.0,-4.5
CC(=O)NC(C(=O)Nc1ccc(F)c(Cl)c1)C(C)C (configuration not stated),17.0,13.5
CC(Sc1nncn1-c1ccccc1)C(=O)N(C)c1ccccc1 (configuration not stated),18.5,0.0

The list is partial. The share of hits here may be higher or lower than overall.
